PINK1 expr mod – A Quantitative High throughput Screen to Identify Chemical Modulators of PINK1 Expression | PINK1 immunofluorescence, high-content cytometry, 24 h | Potency, µM (doses to about 76.6 µM), without a hit: at the top dose activation (PINK1 increase), usual class: activators | 410,000 tested, 0.2% active; active = well fitted activation curve with a large enough effect; inconclusive = small, poorly fitted or top-dose-only effect; inactive = flat fitted curve, though single readings scatter; cell line not stated here;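 note: % of control where 0% means no effect; nearly all actives have a fitted effect of over 65% in size; a mitochondrial uncoupler was the plate control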
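Cells are seeded, rested 12 hours, then given compound at five concentrations or DMSO for 24 hours. After fixation, blocking and antibody staining, PINK1 amount and mitochondrial localization are scored; CCCP serves as control.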
Starred values were filed as active, the others as inactive; ? = inconclusive. Potency is the fitted concentration of half-maximal effect.

SMILES	PINK1 expr mod
COc1ccc(O)c(C(=O)N2CCC3(CC2)c2ccccc2[C@@H](NC(=O)c2ccccn2)[C@@H]3OC)c1	0.4%
COCCNc1ncnc2ccc(-c3ccoc3)cc12	3.3%
CC(=O)Nc1ccccc1-c1nc(CNC(=O)c2ccc(-n3cccn3)cc2)c(C)o1	1.4%
CSc1ncnc2c1ncn2C1OC(CO)C(O)C1O (stereo not drawn)	0.0%
Fc1ccc(N2CCN(Cc3ccc4c(c3)CN(Cc3cccn3-c3cccnc3)CCO4)CC2)cc1	-0.3%
Cc1cnc(CNc2ncnc3ccc(-c4ccccc4C)cc23)cn1	-0.3%
COc1ccccc1-c1nccc(NCc2cccc(C)c2)n1	0.4%
O=C(Nc1ccccc1)N1CCC2(CC1)CCN(C(=O)c1cccc(F)c1)CC2	1.2%
COc1cccc(-c2cncnc2Nc2ccccc2)c1	-0.8%
CC1CN(CCNC(=O)C2CCCc3c2[nH]c2ccccc32)Cc2ccccc2O1 (stereo not drawn)	-0.2%
COCCn1c(=O)c(C)nc2cnc(Nc3cccc(OC)c3)nc21	2.6%
CC(C)NC(=O)[C@@H]1C[C@@H](Sc2ccccn2)CN1C1CCN(C)CC1	0.4%
N#CCCn1c(=O)c(CCc2ccccc2)nc2cnc(Oc3ccccc3)nc21	2.2%
COCCn1c(=O)cnc2cnc(N3CCNCC3)nc21	-1.0%
COc1cccc(-c2cc3c(c(OC)c2)OCCN(Cc2cccn2-c2ccccn2)C3)c1	-0.9%
N#Cc1cccc(-c2cc(NCc3ccccc3)ncn2)c1	-0.3%
Cc1cc(C)n(-c2cccc(C(=O)NCC3Cc4cc(Cl)cc(-c5cnccn5)c4O3)c2)n1 (stereo not drawn)	-0.4%
Cc1cc(C)n(-c2ccc(C(=O)NCC3Cc4cc(-c5cnccn5)ccc4O3)cc2)n1 (stereo not drawn)	0.3%
N#Cc1ccc(CN2CC3(CCN(C(=O)c4ccco4)CC3)C2)cc1	0.5%
CC(C)Cc1nc2cc(NS(=O)(=O)N(C)C)cc(C(=O)N3CCOc4ccccc4C3)c2n1C	-0.4%
COc1ccccc1CN1CC[C@@]2(CCCN(C(=O)c3c(C)noc3C)C2)C1	1.2%
O=C(NCC1Cc2cc(F)cc(-c3cccnc3)c2O1)c1cnn(-c2ccccc2)c1 (stereo not drawn)	1.8%
CC(C)NC(=O)N1CCC2(CC1)CCN(C(=O)c1ccncc1)CC2	-1.0%
COCCNc1ncnc2ccc(-c3ccccc3C)cc12	0.2%
COc1ccc(-c2nc3cnc(OC)nc3n(Cc3cccs3)c2=O)cc1	0.9%
CC(C)NC(=O)N1CCC2(CC1)CCN(S(=O)(=O)c1ccccc1)CC2	-0.7%
Cn1cccc1C(=O)N1CCC2(CCN(Cc3ccncc3)CC2)CC1	-0.7%
Cc1cc(C(=O)Nc2ccccc2-c2nc(CNC(=O)C3COc4ccccc4O3)c(C)o2)c(C)o1 (stereo not drawn)	0.1%
CCN(CC)CCNC(=O)c1cnn(-c2nccc(-c3cc4ccccc4o3)n2)c1C	-0.4%
CN(Cc1ccco1)Cc1ccc(O)c2ncccc12	2.9%
COCCn1c(=O)c(-c2ccc(F)cc2)nc2cnc(Oc3ccccc3)nc21	1.7%
COc1ccc2[nH]cc(CCNc3ncncc3-c3ccc(N(C)C)cc3)c2c1	-1.3%
Cc1ccccc1-c1ccc2ncnc(NC3CC3)c2c1	0.3%
O=C(c1cnccn1)N1CCC2(CC1)CN(Cc1nccs1)C2	-1.2%
CC(C)=CC1C(CO)C1(C)C (stereo not drawn)	0.9%
Cc1cnc(CNc2ncncc2-c2ccccc2C(F)(F)F)cn1	-0.4%
CS(=O)(=O)N1CCC[C@@]2(CCN(C(=O)Nc3cccc(F)c3)C2)C1	-0.2%
O=c1c(-c2cc(F)cc(F)c2)nc2cncnc2n1C1CC1	-0.2%
COc1ccc(CNc2cc(-c3ccccc3C)ncn2)c(OC)c1	0.1%
Cc1ccc2nc(CSc3nc(C)nc4c3oc3ccccc34)[nH]c2c1	0.3%
COc1cccc(Cn2c(=O)c(C)nc3cnc(Nc4cccc(OC)c4)nc32)c1	21.4%
CS(=O)(=O)N1CCC2(CCCN(C(=O)Nc3ccccc3)C2)CC1	1.6%
CC(C)c1c(C(=O)N(C)Cc2cccc3ncccc23)cnn1-c1nccc(-c2ccccc2F)n1	-0.6%
O=C(c1ccnc(-n2cnnn2)c1)N1CCOc2ccc(C(O)CCc3ccccc3)cc2C1 (stereo not drawn)	1.2%
Cn1c(=O)c(-c2ccc(F)cc2)nc2cnc(Oc3ccccc3)nc21	3.1%
COC(=O)C1CCCCN1Cc1ccc2c(c1)CN(Cc1cnn(-c3ccccc3)c1)CCO2 (stereo not drawn)	0.3%
COc1ccc2[nH]cc(CCNc3nc(-c4ccoc4)nc4ccccc34)c2c1	0.1%
COc1cccc(CNC(=O)c2c(OC)cc(=O)n3c2CCN(C(=O)c2ccc(C)s2)CC3)c1	1.3%
O=c1c(CCc2ccccc2)nc2cnc(N3CCOCC3)nc2n1Cc1cccs1	3.7%
COC(=O)[C@@H]1C[C@@H](NC(=O)c2ccc(C(F)(F)F)cc2)CN1Cc1cccc(O)c1	0.4%
COc1cccc(CNc2ncnc3ccc(-c4c(C)noc4C)cc23)c1	2.7%
COCC(=O)Nc1cc(C(=O)N2CCN(c3ccccc3)CC2C)c2c(c1)nc(-c1ccncc1)n2C (stereo not drawn)	0.7%
O=C(NCc1ccccn1)c1cnn(-c2ncc3c(n2)-c2ccccc2CC3)c1C1CC1	-0.2%
COC(=O)N1CCC[C@@]2(CCN(Cc3nccs3)C2)C1	0.6%
O=C(NCCc1nnc2n1CCN(Cc1c(F)cccc1F)CC2)c1ccco1	-0.2%
Cc1cccc(CNc2ncnc3ccc(-c4ccc5c(c4)OCCO5)cc23)c1	22.4µM*
CSCCC(N)C(=O)NC(CC(C)C)C(=O)NC(Cc1ccccc1)C(=O)O (stereo not drawn)	-1.2%
COCc1c(C(=O)N2CCN(C3CCCCC3)CC2)cnn1-c1ncc(C)c(-c2cccs2)n1	0.0%
COc1ccc2nc(-c3ccc(F)cc3)sc2c1	0.8%
COc1cccc(-c2cncnc2NCc2ccccc2OC)c1	9.2%

2 successive records out of the list so far:
SMILES	PINK1 expr mod
COc1cccc(CNC(=O)c2c(OC)cc(=O)n3c2CCN(C(=O)c2ccc(C)s2)CC3)c1	1.3%
O=c1c(CCc2ccccc2)nc2cnc(N3CCOCC3)nc2n1Cc1cccs1	3.7%

In another format: results already given
| mol | PINK1 expr mod |
| --- | --- |
| COc1cccc(-c2cc3c(c(OC)c2)OCCN(Cc2cccn2-c2ccccn2)C3)c1 | -0.9% |
| N#Cc1cccc(-c2cc(NCc3ccccc3)ncn2)c1 | -0.3% |
| Cc1cc(C)n(-c2cccc(C(=O)NCC3Cc4cc(Cl)cc(-c5cnccn5)c4O3)c2)n1 (stereo not drawn) | -0.4% |
| Cc1cc(C)n(-c2ccc(C(=O)NCC3Cc4cc(-c5cnccn5)ccc4O3)cc2)n1 (stereo not drawn) | 0.3% |
| N#Cc1ccc(CN2CC3(CCN(C(=O)c4ccco4)CC3)C2)cc1 | 0.5% |
| CC(C)Cc1nc2cc(NS(=O)(=O)N(C)C)cc(C(=O)N3CCOc4ccccc4C3)c2n1C | -0.4% |
| COc1ccccc1CN1CC[C@@]2(CCCN(C(=O)c3c(C)noc3C)C2)C1 | 1.2% |
| O=C(NCC1Cc2cc(F)cc(-c3cccnc3)c2O1)c1cnn(-c2ccccc2)c1 (stereo not drawn) | 1.8% |
| CC(C)NC(=O)N1CCC2(CC1)CCN(C(=O)c1ccncc1)CC2 | -1.0% |
| COCCNc1ncnc2ccc(-c3ccccc3C)cc12 | 0.2% |
| COc1ccc(-c2nc3cnc(OC)nc3n(Cc3cccs3)c2=O)cc1 | 0.9% |
| CC(C)NC(=O)N1CCC2(CC1)CCN(S(=O)(=O)c1ccccc1)CC2 | -0.7% |
| Cn1cccc1C(=O)N1CCC2(CCN(Cc3ccncc3)CC2)CC1 | -0.7% |
| Cc1cc(C(=O)Nc2ccccc2-c2nc(CNC(=O)C3COc4ccccc4O3)c(C)o2)c(C)o1 (stereo not drawn) | 0.1% |
| CCN(CC)CCNC(=O)c1cnn(-c2nccc(-c3cc4ccccc4o3)n2)c1C | -0.4% |
| CN(Cc1ccco1)Cc1ccc(O)c2ncccc12 | 2.9% |
| COCCn1c(=O)c(-c2ccc(F)cc2)nc2cnc(Oc3ccccc3)nc21 | 1.7% |
| COc1ccc2[nH]cc(CCNc3ncncc3-c3ccc(N(C)C)cc3)c2c1 | -1.3% |
| Cc1ccccc1-c1ccc2ncnc(NC3CC3)c2c1 | 0.3% |
| O=C(c1cnccn1)N1CCC2(CC1)CN(Cc1nccs1)C2 | -1.2% |
| CC(C)=CC1C(CO)C1(C)C (stereo not drawn) | 0.9% |
| Cc1cnc(CNc2ncncc2-c2ccccc2C(F)(F)F)cn1 | -0.4% |
| CS(=O)(=O)N1CCC[C@@]2(CCN(C(=O)Nc3cccc(F)c3)C2)C1 | -0.2% |
| O=c1c(-c2cc(F)cc(F)c2)nc2cncnc2n1C1CC1 | -0.2% |
| COc1ccc(CNc2cc(-c3ccccc3C)ncn2)c(OC)c1 | 0.1% |

(further entries)
SMILES	PINK1 expr mod
COC(=O)c1c(OC)cc2c(c1C)Oc1c(Cl)c(OC(C)=O)c(Cl)c(C)c1C(=O)O2	1.2%
O=C(Nc1cccc(F)c1)N1CCC2(CC1)CCN(C(=O)c1cc(C(F)(F)F)cc(C(F)(F)F)c1)CC2	0.4%
O=C(CN1Cc2ccccc2OC(c2ccsc2)C1)N1CCC(c2nc3ccccc3[nH]2)CC1 (stereo not drawn)	1.6%
CCC(=O)NC(c1ccco1)c1cc(Cl)c2cccnc2c1OC (stereo not drawn)	-0.4%
CO[C@H]1[C@H](NC(=O)c2cccs2)c2ccccc2C12CCN(Cc1cccn1-c1ccccn1)CC2	0.0%
COc1cc(=O)n2c(c1C(=O)NCc1ccco1)CCN(Cc1cccc(C(F)(F)F)c1)CC2	1.5%
O=C(c1ccncc1)N1CCC2(CCCN(c3ccccc3)C2)CC1	-1.2%
COc1cccc(Nc2ncc3ncc(=O)n(CCC#N)c3n2)c1	0.0%
COc1ccccc1CNc1nc(-c2cccc(C#N)c2)nc2ccccc12	1.5%
CN(C)c1ncc2nc(CCc3ccccc3)c(=O)n(CCC#N)c2n1	0.4%
COCC(=O)N1CCC2(CCCN(C(=O)Nc3cccc(F)c3)C2)CC1	-1.0%
CNc1ncnc2ccc(-c3ccccc3C)cc12	0.7%
COc1ccc(Nc2nc(NCCO)nc(N3CCCC3)n2)cc1	3.5%
CN(C)C(=O)c1ccc(-c2ccc3ncnc(NC4CC4)c3c2)cc1	-0.7%
Cn1c(=O)c2[nH]c(CCCC(=O)O)nc2n(Cc2ccccc2)c1=S	0.7%
COc1cc2nc(N(C)C)c(CNC3CCOC(C)(C)C3)cc2c(OC)c1OC (stereo not drawn)	-0.3%
COc1ccc(CNc2ccnc(-c3ccccc3C(F)(F)F)n2)c(OC)c1	2.5%
O=C(c1noc2c1CCCC2)N1CCOc2ccc(CN3CCN(c4ccccn4)CC3)cc2C1	-0.1%
COCCn1c(=O)c(-c2ccc(Cl)cc2)nc2cnc(Oc3ccccc3)nc21	2.5%
Cc1nc2cc(NC(=O)[C@@H]3C[C@@H](Sc4ccccn4)CN3C3CCCCCC3)ccc2s1	-0.3%
O=c1c(CCc2ccccc2)nc2cnc(Oc3ccccc3)nc2n1C1CC1	-1.1%
O=C(c1cccc(F)c1)N(Cc1cc2cc3c(cc2nc1N1CCOCC1)CCC3)CC1CCCO1 (stereo not drawn)	1.6%
COc1cc(-c2ccc(Cl)cn2)cc2c1OCCN(C(=O)c1ccccc1-n1cccn1)C2	1.7%
COc1cccc(CN(C)C(=O)c2cnn(-c3ncc4c(n3)-c3ccccc3CCC4)c2C)c1	0.2%
O=c1cnc2cnc(Nc3ccccc3)nc2n1C1CC1	-1.1%
CN(Cc1ccco1)c1ncncc1-c1ccccc1Cl	2.7%
CO[C@H]1[C@H](NC(=O)c2ccco2)c2ccccc2C12CCN(Cc1ccc3cccc(F)c3n1)CC2	2.2%
Cc1cnc(CNc2cc(-c3ccc(N(C)C)cc3)ncn2)cn1	0.0%
CN(C)c1ncc2nc(-c3ccc(F)cc3)c(=O)n(CCc3ccccc3)c2n1	-0.5%
COC(=O)c1ccc(CN2CCOc3ccc(CN4CCC(O)(c5cccnc5)CC4)cc3C2)cc1	0.1%
Cc1cccc(CNc2ccnc(-c3cccc(C#N)c3)n2)c1	5.5%
CN1CCCCC1C(=O)N1CCC(Oc2cccc(CN3CCN(c4ccccn4)CC3)c2)CC1 (stereo not drawn)	-0.4%
Cc1c(CCCC(=O)O)sc(N)c1C(=O)c1cccc(C(F)(F)F)c1	-0.8%
O=C(c1ccncc1)N1CCC2(CCCN(c3ccc(-c4ccccc4)cc3)C2)CC1	2.4%
COc1ccc(-n2c(=O)c(C)nc3cncnc32)cc1	1.4%
COc1cccc(Nc2ncc3nc(-c4ccccc4)c(=O)n(Cc4cccs4)c3n2)c1	?
CC(C)CN1CCCC2(CCN(C(=O)c3cc(C(F)(F)F)cc(C(F)(F)F)c3)CC2)C1	1.3%
CN1CCC2(CC1)CCN(C(=O)c1ccncc1)CC2	-0.9%
CCOc1ccc2nc(N3CCCC3C(=O)N3CCC(c4nc5ccccc5o4)CC3)nc(C)c2c1 (stereo not drawn)	1.4%
O=C(C1CCOC1)N1CCOc2ccc(CN3CCC(Oc4cccnc4)CC3)cc2C1 (stereo not drawn)	1.1%
COCCNc1nc(-c2c(C)noc2C)nc2ccccc12	0.8%

Some of the compounds tested. The share of hits here may be higher or lower than overall.
